INS promoter inh – inhibitors of insulin promoter-driven GFP, primary screen, imaging, TRM-6 cells (human fetal islet line), eGFP reporter, cell count; AID 1273, 2008; reporter expression induced with tamoxifen; 130,000 tested, 0.9% active; inhibition, % at 2 µM;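 active = inhibition above the mean plus 3 SD, with well images judged a real hit on visual review, cut at about 60% in these data, passing the limit was not always enough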
HSV replic up – enhancers of HSV replication in host cells, fold increase, host cell viability; maximum fold increase; 220,000 tested, 0.005% active; HSV replication augmentation in cells;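 active = peak rise of 1.5-fold or more in the series; tested in PC3 cells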;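 also: first round at 10 µM; read as green reporter fluorescence; hits show the peak of a series up to 25 µM; 1 = signal of infected wells without compound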
GALR2 agonist – GALR2 receptor agonists, primary screen, cell-based. Galanin receptor type 2 (Homo sapiens), O43603. GALR2-expressing cells, agonist activation read-out. activation, %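 (tested at 5 µM)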. 140,000 tested, 0.48% active. AID 803, 2007;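 active = above mean plus 3 SD of all compounds, about 5% in these data, not always enough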;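 also: 0% = vehicle buffer wells and 100% = reference agonist at full effect; tested in CHO reporter cells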
Target sequence (O43603 whole entry, looked up): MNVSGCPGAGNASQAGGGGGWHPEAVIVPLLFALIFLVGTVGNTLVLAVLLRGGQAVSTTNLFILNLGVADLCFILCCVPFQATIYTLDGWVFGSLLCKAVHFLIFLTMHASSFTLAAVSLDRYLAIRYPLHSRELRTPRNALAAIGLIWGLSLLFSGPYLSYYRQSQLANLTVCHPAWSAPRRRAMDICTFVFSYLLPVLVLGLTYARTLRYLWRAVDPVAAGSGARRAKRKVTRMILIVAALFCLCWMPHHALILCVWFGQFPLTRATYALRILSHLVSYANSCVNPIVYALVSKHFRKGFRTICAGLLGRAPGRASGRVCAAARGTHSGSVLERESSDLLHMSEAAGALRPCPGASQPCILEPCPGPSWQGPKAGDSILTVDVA
RGS16-Gao – modulators of RGS16 binding to Galphao, primary screen, biochemical, human proteins, multiplexed bead flow cytometry; AID 1441, 2008; 220,000 tested, 0.38% active; Regulator of G-protein signaling 16 (Homo sapiens) + Guanine nucleotide-binding protein …; bead-based flow cytometry RGS16-Galphao binding, fluorescence; actives lie on both sides; binding response (% of control), % at 10 µM;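 active = below 25% or above 175%, edge rows of some plates excepted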;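 also: Galphao activated by GDP with aluminum fluoride before binding; 100% = wells without compound and 0% = beads without RGS; some results beyond the cut were filed as inactive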
Target sequence (O15492 whole entry, looked up): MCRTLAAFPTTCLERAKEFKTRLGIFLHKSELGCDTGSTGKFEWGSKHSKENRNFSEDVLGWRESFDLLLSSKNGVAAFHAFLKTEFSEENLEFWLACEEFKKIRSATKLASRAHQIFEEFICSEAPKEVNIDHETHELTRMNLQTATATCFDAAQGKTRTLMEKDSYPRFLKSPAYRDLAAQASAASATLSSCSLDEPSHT
Target sequence (P09471 whole entry, looked up): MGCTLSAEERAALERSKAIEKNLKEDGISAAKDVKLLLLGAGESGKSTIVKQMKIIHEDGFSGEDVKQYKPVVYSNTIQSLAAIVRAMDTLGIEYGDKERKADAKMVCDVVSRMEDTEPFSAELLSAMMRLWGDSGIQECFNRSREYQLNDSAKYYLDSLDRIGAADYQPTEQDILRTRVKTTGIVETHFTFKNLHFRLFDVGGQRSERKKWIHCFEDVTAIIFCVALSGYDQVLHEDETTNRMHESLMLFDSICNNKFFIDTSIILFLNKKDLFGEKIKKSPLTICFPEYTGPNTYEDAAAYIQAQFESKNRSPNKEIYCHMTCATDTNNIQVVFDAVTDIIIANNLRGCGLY
PKD1 inh – inhibitors of human PKD1 kinase, biochemical, fluorescence polarization | Serine/threonine-protein kinase D1 (Homo sapiens), Q15139 | PKD1 kinase fluorescence polarization assay | inhibition, %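 (about 10 µM by stock and volumes)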 | 200,000 tested, 0.056% active;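 active = inhibition of 50% or more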;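 also: controls were vehicle for no effect and a reference inhibitor for full effect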
INS promoter inh cell count – further read-out of INS promoter inh, marked with its call; normalized cell count, %; measured here: cell count, toxicity; reference of the scale not given here;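 cells exposed to compound for 48 h; stained nuclei by imaging scaled within each plate; lower means fewer cells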
HSV replic up primary fold – recorded beside HSV replic up, whose call it bears; fold increase; compound at 10 µM; measured here: primary screen fold increase 10 uM; tested in PC3 cells;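 GFP signal in the first replicate; 1 = infected wells without compound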
The depositor's hits bear a star; i = inactive; nt = not tested or not shown.

SMILES	INS promoter inh	INS promoter inh cell count	HSV replic up	HSV replic up primary fold	GALR2 agonist	RGS16-Gao	PKD1 inh
c1ccc(C2OC3c4cccc5cccc(c45)C3N2c2ccccc2)cc1 (configuration not stated)	3.5	71.6	i	1.04	-1.1	135.7	-6.7
CCC(C)NC(=O)CCNS(=O)(=O)c1ccc(Br)cc1 (configuration not stated)	nt	nt	i	0.95	-1.1	103.0	-0.6
CC(=O)C1=C(O)C(=O)N(c2ccc(C(=O)O)cc2)C1c1ccccc1 (configuration not stated)	13.5	135.7	i	0.92	-0.6	128.8	1.5
Cn1nnc(NC(=S)NC(=O)c2ccco2)n1	16.1	63.7	i	0.97	-3.0	123.7	-2.4
Cc1ccc(-c2nn3c(C)nnc3c3ccccc23)cc1S(=O)(=O)NCCO	nt	nt	i	1.01	nt	110.8	2.2
CCc1n[nH]c(=S)n1/N=C/c1cc(Br)c(O)c(OC)c1	nt	nt	i	0.98	nt	87.2	nt
O=C(NC1=NCCCCC1)c1cccc2ccccc12	-27.3	133.6	i	0.86	nt	110.3	-6.9
CCS(=O)(=O)NCCc1cc2cc(C)c(C)cc2[nH]c1=O	9.1	108.4	i	0.97	-1.8	92.3	-11.5
Cc1cc2cc(CN(Cc3ccco3)C(=O)NCc3ccccc3)c(=O)[nH]c2cc1C	nt	nt	i	0.82	-0.5	100.2	-2.2
COCCNC(=O)Nc1ccc2nc(-c3cccs3)c(-c3cccs3)nc2c1	0.0	147.6	i	1.06	0.0	94.1	-3.2
COc1ccc(-c2csc(NC(=S)NC(=O)/C=C/c3ccco3)n2)cc1OC	-28.1	73.4	i	0.6	0.6	105.2	-1.5
COc1ccc(/C=C/c2ccccc2)cc1[C@H]1[C@@H]2C=CCC[C@@]2(C)C(=O)N1Cc1ccccc1	nt	nt	i	0.9	nt	92.0	nt
O=C(COc1ccc(S(=O)(=O)NC2CCCCC2)cc1Cl)N1CCN(c2ccccc2)CC1	-33.3	86.2	i	0.89	-1.3	101.4	6.0
Cc1ccc(/C(N)=N/OC(=O)Cc2cccs2)cc1	-41.9	123.1	i	0.79	-1.7	103.4	6.3
O=C(CCCC1=NS(=O)(=O)c2ccccc2N1)N1CCN(c2ccccc2)CC1	30.0	139.7	i	0.97	0.3	101.6	-2.6
CC(C)C[C@@H]1NC(=O)[C@H](CO)NC(=O)c2cc([N+](=O)[O-])cc(I)c2OCC[C@@H](C(N)=O)NC1=O	4.5	127.4	i	1.35	-1.4	101.9	-7.7
O=c1oc2ccccc2c2oc3cc(O)c(O)cc3c12	nt	nt	i	0.8	nt	97.1	nt
COc1ccc(/C=C/C(=O)OC(C)CN2CCOCC2)cc1 (configuration not stated)	20.0	135.5	i	0.88	-1.4	89.4	-4.7
O=C(CN(C(=O)C1CSC(=O)C1)c1ccccc1F)NCc1ccc2c(c1)OCO2 (configuration not stated)	nt	nt	i	0.65	-3.6	109.7	-7.3
O=C(Cn1cnc2ccccc2c1=O)NCC(=O)N1CCN(c2ccccn2)CC1	nt	nt	i	0.9	-0.3	102.6	-9.3
CC(C)[C@H](Nc1ccc(S(=O)(=O)N2CCOCC2)cc1[N+](=O)[O-])C(=O)OCC(N)=O	-23.1	135.8	i	0.97	-0.4	111.7	-12.2
CCCCN(CC)S(=O)(=O)c1ccc2c(c1)CCCN2C(C)=O	-6.2	142.8	i	0.82	-1.7	101.2	-3.7
COc1ccc(-c2csc3nc[nH]c(=O)c23)cc1	0.0	157.2	i	0.85	nt	118.4	-5.9
COc1ccc(C(C#N)Nc2ccccc2OC)cc1 (configuration not stated)	-66.7	131.2	i	0.81	-1.1	91.0	-3.4
Cc1cc(SCC(=O)NN)c2cc(Br)ccc2n1	nt	nt	i	1.12	nt	96.8	nt

Remaining list, next part
SMILES	INS promoter inh	INS promoter inh cell count	HSV replic up	HSV replic up primary fold	GALR2 agonist	RGS16-Gao	PKD1 inh
COc1ccc(C(Nc2ccccn2)c2c(NC(=O)c3ccco3)sc(C)c2C)cc1 (configuration not stated)	nt	nt	i	1.12	-0.5	110.7	-5.8
CC(C)CCNC(=O)CCn1c(=S)oc2ccccc21	0.0	55.1	i	0.95	nt	104.9	-5.7
CC(C)OC(=O)C1C(=O)CC(C)(O)C(C(=O)OC(C)C)C1c1cccc(O)c1 (configuration not stated)	0.0	117.5	nt	nt	-1.2	101.3	14.2
CN(C)S(=O)(=O)c1ccc(NC(=O)CSc2ncnc3ccccc23)cc1	nt	nt	i	1.04	-0.2	100.3	-5.5
NC(=O)c1cc2cc(Cl)ccc2o/c1=N/NC(=O)c1cccs1	nt	nt	i	1.12	nt	100.0	nt
CCCCCn1c(=O)c2ccccc2n2c(CCl)nnc12	nt	nt	i	0.88	nt	99.0	-1.4
O=C(Nc1cccc2ccccc12)C12CC3CC(C1)CC(n1cnc([N+](=O)[O-])n1)(C3)C2	-24.6	101.4	i	0.86	-2.5	105.5	-3.3
Cc1cc2c(NC(=O)CC(C)(C)CC(=O)O)cccc2nn1	nt	nt	i	1.11	nt	98.1	nt
O=C(O)Cc1ccc(NS(=O)(=O)c2ccccc2Br)cc1	nt	nt	i	0.91	nt	96.8	0.8
CCCCn1c(NCCN(C)C)nc2c1c(=O)[nH]c(=O)n2C	29.4	80.6	i	1.02	0.6	102.4	-11.4
Nc1nc(N)nc(-c2ccc(Oc3ccccc3)cc2)n1	-280.0	114.5	i	0.91	-1.6	101.6	-7.2
O=C(COC(=O)c1ccccn1)Nc1ncc(C(F)(F)F)cc1Cl	3.6	64.4	i	0.92	-1.9	98.8	7.8
CCOc1ccc(-n2c(O)c(/C=N/Nc3nnc(C)c(=O)[nH]3)c3ccccc3c2=O)cc1	nt	nt	i	0.83	nt	105.4	-4.5
Cc1nn(C)c(C)c1CCC(=O)O	nt	nt	i	1.02	nt	62.0	-1.2
C/C(Cn1nnc([N+](=O)[O-])n1)=N\NC(=O)c1ccc(O)cc1	nt	nt	i	0.95	nt	95.8	nt
COc1ccc(-c2cc(C(=O)Nc3cc(C)on3)no2)cc1OC	33.3	117.4	i	0.94	nt	111.0	-1.0
CC(Oc1ccc(Cl)cc1Cl)C(=O)NCCCn1ccnc1 (configuration not stated)	21.4	101.6	i	1.02	-1.2	104.0	9.6
CC(OC(=O)c1ccncc1)C(=O)Nc1cccc([N+](=O)[O-])c1 (configuration not stated)	58.3	78.4	i	1.06	nt	96.1	1.3
Cc1nn(Cc2ccc(Cl)cc2Cl)c(C)c1NC(=O)c1sc2ccccc2c1Cl	nt	nt	i	0.77	-1.6	99.7	-3.1
CCN(CC)CCn1c(C)nc2ccccc21	nt	nt	i	1.04	nt	100.9	nt
CCOC(=O)c1c(C)oc2c1c1c(c3ccccc32)OCN(Cc2cccnc2)C1	-15.8	106.9	i	1.02	-0.3	96.8	-3.6
O=C1Nc2ccccc2C1=Nc1ccc(-c2nnc3n2CCCCC3)cc1	nt	nt	i	1.11	-1.1	97.9	34.6
CCOCCCNC(=O)/C(C#N)=C/c1cc(Br)c(O)c(Br)c1	nt	nt	i	0.83	nt	100.7	nt
Cc1ncoc1C(=O)N1CCc2c([nH]c3ccccc23)C1c1ccccc1F (configuration not stated)	-23.1	84.2	i	0.99	nt	104.4	2.4
COCC(=O)N(Cc1cc2ccc(C)c(C)c2n2nnnc12)C1CCCC1	nt	nt	i	1.04	nt	101.6	-0.5

The results go on.
SMILES	INS promoter inh	INS promoter inh cell count	HSV replic up	HSV replic up primary fold	GALR2 agonist	RGS16-Gao	PKD1 inh
Cc1ccc(-c2nnn(CC(=O)N(c3ccc(F)cc3)C(C(=O)NC3CCCC3)c3ccco3)n2)o1 (configuration not stated)	-38.5	70.8	i	1.23	3.3	100.7	13.7
CC[N+]1(C)CC2CCC(C)(C1)C2(C)C (configuration not stated)	50.0	105.8	i	0.99	nt	78.3	-8.1
CCCCN1CNC(=S)N(CCc2ccc(OCC)c(OCC)c2)C1	nt	nt	i	0.89	nt	107.1	nt
COCCNC(=O)CN1CCOc2ccccc21	nt	nt	i	0.98	-1.8	100.0	-11.8
CSc1ccccc1C(=O)C1CCCN(S(=O)(=O)N(C)C)C1 (configuration not stated)	nt	nt	i	1.15	nt	109.9	-2.5
CCN(CC)C(=O)c1ccc(NS(=O)(=O)c2ccccc2)cc1	100.0*	50.9*	i	0.88	-1.6	79.0	-13.1
Cc1nc(NCCO)c(C#N)c2c1COC(C)(C)C2	64.0	140.9	i	1	-2.3	102.0	-0.1
O=C(O)c1ccc(NC(=S)Nc2ccccc2)cc1	8.0	145.7	i	0.96	-0.5	114.8	-7.5
C=CCNC(=O)/C(C#N)=C/c1ccc(SC)cc1	nt	nt	i	0.92	nt	102.6	6.5
O=C(N/N=C/c1ccc(Br)o1)c1cc([N+](=O)[O-])cc([N+](=O)[O-])c1	27.8	73.0	i	0.82	nt	99.8	-6.1
CCC(CC)C(=O)Nc1cccc(C(=O)Nc2ccc(S(=O)(=O)Nc3ccc(C)cc3)cc2)c1	10.0	181.4	i	0.91	0.6	101.4	-8.1
O=C(O)c1ccccc1-c1nc2ccccc2c(=O)n1O	-18.2	154.6	i	1.05	nt	105.3	-6.7
CCCN1Cc2cccc(C(=O)NCc3ccc4c(c3)OCO4)c2C1=O	nt	nt	i	0.82	-0.6	106.5	49.2
CC(=O)Nc1ccccc1NC(=O)CC(C)(C)C	-68.8	132.6	i	0.94	-2.5	90.4	-2.7
CCOC(=O)c1ccc(Nc2nnc3nc(C)cc(C)n23)cc1	47.5	93.5	i	1.03	0.0	102.7	-13.3
Cc1ccc(C)c(CS(=O)(=O)c2cn(CC(=O)N3CCC(C)CC3)c3ccccc23)c1	nt	nt	i	0.92	-0.3	99.7	-9.0
CC1(C)COC(c2coc3ccccc3c2=O)OC1	100.0*	0.0*	i	0.92	-1.2	105.8	-3.2
COc1ccc(C2CC(c3ccc(OC)cc3)n3nc(N)nc3N2)cc1 (configuration not stated)	nt	nt	i	1.18	-1.4	nt	-11.4
CNS(=O)(=O)c1ccc(NC(=O)C(CCSC)NC(N)=O)cc1 (configuration not stated)	nt	nt	i	0.87	-1.6	53.5	-6.7
CC1CCCC(C)N1C(=O)COc1ccc(C(=O)N/N=C/c2ccc(C(=O)O)cc2)cc1 (configuration not stated)	-40.0	98.9	i	1.04	nt	100.2	0.8
Nc1c(C(=O)Nc2ccc(S(=O)(=O)N3CCCC3)cc2)sc2nc3cc4c(cc3cc12)CCC4	-181.8	94.9	nt	nt	1.9	100.2	12.7
COC(=O)c1cn(C(=O)c2cccs2)c2ccccc12	13.8	81.4	i	0.92	-4.5	100.8	-6.2
CCCCSC1(SCCCC)N=C(N)C2(C#N)C(c3ccccc3)NC(C)=CC12C#N (configuration not stated)	43.6	143.4	i	0.86	-0.2	108.3	-5.4
COc1ccc(-c2ccc(SCC(=O)NCC3CCCO3)nn2)cc1OC (configuration not stated)	-78.6	81.8	i	0.95	nt	106.5	0.5
O=C1CC(c2ccccc2)CC(O)=C1C=NCCN1CCNCC1 (configuration not stated)	nt	nt	i	1.02	-2.4	139.2	-4.9
O=C(NCc1ccc(F)cc1)C1CCC(=O)N1C1CCCCC1 (configuration not stated)	-30.8	85.2	i	0.9	-1.6	98.4	-3.6
CCC(C)C(NC(=O)c1ccc(Cl)cc1)C(=O)O (configuration not stated)	6.5	105.1	i	1.05	-3.4	116.5	-14.3
COc1ccc(C)cc1S(=O)(=O)N1CCOCC1	50.0	121.8	i	0.99	nt	106.1	-4.0

Ordered by SMILES length (low to high): some entries from above.
SMILES	INS promoter inh	INS promoter inh cell count	HSV replic up	HSV replic up primary fold	GALR2 agonist	RGS16-Gao	PKD1 inh
Cc1cc(SCC(=O)NN)c2cc(Br)ccc2n1	nt	nt	i	1.12	nt	96.8	nt
CCCCCn1c(=O)c2ccccc2n2c(CCl)nnc12	nt	nt	i	0.88	nt	99.0	-1.4
CCOC(=O)c1ccc(Nc2nnc3nc(C)cc(C)n23)cc1	47.5	93.5	i	1.03	0.0	102.7	-13.3
CCS(=O)(=O)NCCc1cc2cc(C)c(C)cc2[nH]c1=O	9.1	108.4	i	0.97	-1.8	92.3	-11.5
CC(OC(=O)c1ccncc1)C(=O)Nc1cccc([N+](=O)[O-])c1 (configuration not stated)	58.3	78.4	i	1.06	nt	96.1	1.3
CCCCSC1(SCCCC)N=C(N)C2(C#N)C(c3ccccc3)NC(C)=CC12C#N (configuration not stated)	43.6	143.4	i	0.86	-0.2	108.3	-5.4

Assay outcomes as filed in PubChem BioAssay.

Rows were taken by chance. Share with any hit: about 1.3%.
